TRPV1 potentiator: potentiators of human vanilloid receptor 1 (TRPV1). Q8NER1. TRPV1-expressing cells, Fluo-8 calcium influx, capsaicin EC20 potentiation; host cell line not named in the record; control for the full effect not named in the record. potentiation, % at 8.33 µM. 0.02% of 320,000 active. AID 540277; active means potentiation above 80%; inconclusive means 30% to 80%; inactive means below 30%; further: 0% is about no effect
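Fluo-8 calcium influx in TRPV1-expressing cells, kinetic read (ex 480/em 520 nm). Compound added and read 3 min for agonist activity, followed by capsaicin at EC20 final and 2 min further read for enhancement.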
Menin MLL FP FL: displaces fluorescein MLL peptide from human menin; Fluorescence polarization, fluorescein-MLL peptide displacement from menin; FP activity change, % at 61.4 µM; 290,000 tested, under 10 active; AID 1766; inconclusive = falling polarisation curve, or a change in total fluorescence; inactive = total fluorescence flat and polarisation flat or rising; no compound was filed as active; the % refers to the polarisation; negative = inhibition;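 further: % of control where 0% means no effect; inhibitors lower the polarisation; unlabelled MLL peptide was the positive control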
ClpP mod: qHTS Assay for Activators of ClpP; AID 651965, 2013; 1.9% of 340,000 active; purified B. subtilis ClpP, FRET peptide cleavage, 20 min; Potency, µM (top dose mostly 57.5 µM), inactives show at the top dose activity change, negative = active; ATP-dependent Clp protease proteolytic subunit (Bacillus subtilis (strain 168)), P80244; active = well fitted falling curve with a large enough effect; inconclusive = small, poorly fitted or top-dose-only effect; inactive = no such curve, though single readings can be large or run the other way; further: potency means the concentration at half of the fitted maximal effect; the source files actives as falling curves though it sought activators and does not explain the sign; nearly all actives have a fitted effect of over 65% in size; many hits overshoot -100%
Target sequence (P80244 whole entry, looked up): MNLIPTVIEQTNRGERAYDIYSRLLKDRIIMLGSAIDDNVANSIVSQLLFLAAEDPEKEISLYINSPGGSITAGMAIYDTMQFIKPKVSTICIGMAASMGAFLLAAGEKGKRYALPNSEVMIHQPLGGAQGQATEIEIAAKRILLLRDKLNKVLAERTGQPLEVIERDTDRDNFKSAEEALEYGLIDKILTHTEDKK
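Buffer: 100 mM Tris/HCl pH8, 100 mM KCl, 0.05% low protease BSA, 2.5% glycerol, 0.01% Tween-20. ClpP 10 microg/mL final; 20 min RT; delta FRET normalized to ADEP and DMSO controls.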
TRPML1 agonist: activates the human TRPML1 channel. Q9GZU1. AID 624414. activation, % (no concentration beside the values). 0.12% of 410,000 active. TRPML1-expressing cells, Ca2+ dye fluorescence, FDSS; host cell line not named in the record; reference of the full effect not given here; in the data active = activation above about 50%; inconclusive = about 30% to 50%; inactive = below about 30%; further: 0% is about no effect; the text of the record puts the active cut at 80%
Target sequence (Q9GZU1 whole entry, looked up): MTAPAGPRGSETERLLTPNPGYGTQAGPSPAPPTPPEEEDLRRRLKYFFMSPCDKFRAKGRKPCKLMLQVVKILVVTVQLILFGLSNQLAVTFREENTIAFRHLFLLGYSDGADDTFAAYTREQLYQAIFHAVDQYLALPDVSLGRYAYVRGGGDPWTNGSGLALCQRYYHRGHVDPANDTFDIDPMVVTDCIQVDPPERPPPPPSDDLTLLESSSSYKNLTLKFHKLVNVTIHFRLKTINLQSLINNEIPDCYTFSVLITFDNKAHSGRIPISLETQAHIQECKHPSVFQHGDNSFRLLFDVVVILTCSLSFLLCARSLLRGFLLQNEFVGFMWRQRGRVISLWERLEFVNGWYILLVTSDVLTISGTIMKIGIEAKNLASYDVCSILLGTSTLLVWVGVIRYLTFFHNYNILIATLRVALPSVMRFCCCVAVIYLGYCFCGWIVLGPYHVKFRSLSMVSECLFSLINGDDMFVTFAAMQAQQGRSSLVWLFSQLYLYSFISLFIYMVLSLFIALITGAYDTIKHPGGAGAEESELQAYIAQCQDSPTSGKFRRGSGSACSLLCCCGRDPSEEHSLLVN
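Kinetic FDSS Ca2+ read in Tet-induced TRPML1-DL cells (ABD Ca8 dye plus quencher, 45-90 min RT loading): baseline, then compound, then 110 s agonist window; EC80 agonist 54-4 at 4uM final added afterwards for a 110 s antagonist window.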
Sfp inh: blocks B. subtilis Sfp PPTase activity | Q9F4F7 | Biochemical Sfp PPTase activity, qHTS | Potency, µM, inactives show max response, negative = inhibition, usual class: inhibitors | 3.5% of 310,000 active; active means well fitted inhibition curve with a large enough effect; inconclusive means small, poorly fitted or top-dose-only effect, or another doubt; inactive means no such curve, though single readings can be large or run the other way;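 further: the enzyme is Sfp with the accession as filed and its product quenches rhodamine fluorescence; potency means the concentration at half of the fitted maximal effect; 0% = enzyme reaction without inhibitor and -100% = no enzyme wells; top concentration of the series not given in the record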
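Compounds were incubated with enzyme (final 15 nM) for 15 min at room temperature before substrate addition started the reaction. Fluorescence at 525 nm excitation, 598 nm emission was recorded immediately and after 30 minutes.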
TRPML1 inh: human mucolipin-1 channel inhibition | 0.02% of 390,000 active | TRPML1-inducible cells, Ca2+ dye fluorescence, FDSS; stronger effect = lower value; inhibition of EC80 agonist-evoked calcium signal | activity change, negative = inhibition, % (concentration not given with the values); in the data active means activity change below about -50%; inconclusive means about -30% to -50%; inactive means above about -30%;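 further: stimulus is agonist 54-4 at its EC80 concentration; on the % scale 0 is the no-effect control and ±100 the full control effect; compound concentration not given in the record; the text of the record puts the active cut at -80%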
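TRPML1-DL cells, Tet-induced overnight (~16 h, 37 °C) at 1,500 cells/well, were loaded with Ca8 no-wash dye plus quencher for 45-90 min at room temperature. Compounds were pinned during FDSS kinetic reading; agonist 54-4 at EC80 (4 uM final) then added.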
PINK1 modulator: modulators of PINK1 expression; PINK1 immunofluorescence, high-content cytometry, 24 h; Potency, µM (series often up to 76.6 µM), for the others: top-dose activation (PINK1 increase), actives largely listed as activators; 0.2% of 410,000 active; AID 624263; active = well fitted activation curve with a large enough effect; inconclusive = small, poorly fitted or top-dose-only effect; inactive = flat fitted curve, though single readings scatter; cell line not stated here;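 further: potency means the concentration at half of the fitted maximal effect; % of control where 0% means no effect; nearly all actives have a fitted effect of over 65% in size; a mitochondrial uncoupler was the plate control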
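Decision-based qHTS: stable cells, 24 h exposure to five compound concentrations, CCCP as control. Fixed cells stained for PINK1 plus nuclear, mitochondrial and cell markers, cytometer read.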
Active calls of the source: *; u = inconclusive; x = no result given; [ ] = dose if it differs, or a comment.

SMILES	TRPV1 potentiator	Menin MLL FP FL	ClpP mod	TRPML1 agonist	Sfp inh	TRPML1 inh	PINK1 modulator
COC(=O)c1sccc1NC(=O)CC1C(=O)NCCN1C(=O)c1ccc(F)cc1 (centres undefined)	2	3.2	-0.3%	0.6	10%	1	-0.4%
Cc1ccc(CNC(=O)c2c(-c3cccc(Br)c3)noc2C)o1	x	x	-0.1%	1.1	x	-1	0.7%
Cc1cccc(N(Cc2ccccc2)C(=O)c2ccccc2F)c1	13	-1.7	x	9.2	9%	27	0.0%
COc1ccc(NC(=O)CN2CCC(NC(=O)C3CCCCC3)CC2)cc1	9	3.4	-0.1%	0.0	-1%	-3	4.2%
Clc1ccc(Nc2nc(NCc3ccco3)nc3nccnc23)cc1	x	x	2.2%	-0.2	x	x	-0.2%
C=CCNC(=O)c1ccccc1NC(=O)c1ccccc1N(C)S(C)(=O)=O	-1	-0.5	x	0.2	7%	-8	0.1%
COc1ccc(C(=O)COC(=O)c2cc(=O)[nH]c3ccccc23)c(OC)c1	6	x	-16%	1.1	x	-12	6.9%
CC1CCN(C(=O)COC(=O)Cc2c[nH]c3ccccc23)CC1	13	2.3	1.1%	1.4	14%	-3	0.1%
Nc1ccccc1SC(CC(=O)c1ccccc1)c1cccc([N+](=O)[O-])c1 (centres undefined)	x	x	-0.2%	1.8	x	9	-2.3%
Cc1ccc(S(=O)(=O)N2CCC(=O)N(C(COCc3cccc(C)c3)C(C)C)CC2)cc1 (centres undefined)	-9	2.6	1.7%	-0.1	0%	-1	1.1%
CC1CCc2sc(C(=O)NCC(C)(C)N3CCOCC3)cc2C1 (centres undefined)	-20	x	0.2%	0.4	x	-6	0.9%
CC1(NC(=O)c2ccccc2)CCN(CCCc2ccccc2)C1=O (centres undefined)	0	x	1.5%	-0.7	x	16	0.1%
O=C(Cc1ccc(S(=O)(=O)N2CCOCC2)s1)NC1CCCCC1	-3	x	-2.5%	1.8	x	-18	1.0%
O=C(NCc1nnc(SC/C=C/c2ccccc2)o1)c1ccco1	-14	3.1	-0.9%	1.0	0%	10	1.8%
COc1ccc(NC(=O)CSc2nncn2C)cc1OC	-6	1.1	-0.4%	1.8	11%	1	-0.1%
Cc1onc(-c2ccccc2)c1C(=O)Nc1ccc2c(C)cc(=O)oc2c1	-12	2.8	16µM*	-0.5	2%	-17	0.5%
O=C(COc1ccccc1)N=C1SC2CS(=O)(=O)CC2N1c1cccc(F)c1 (centres undefined)	18	x	-0.2%	-0.8	0%	8	0.3%
CCCCCn1c2nc3ccccc3nc2c2c(=O)n(CC(C)C)cnc21	5	-0.9	-9.3%	-0.3	11%	1	3.5%
CCOC(=O)Cn1cc(C(=O)C(C)(C)C)c2ccccc21	-3	-2.1	2.8%	-0.2	11%	5	-0.6%
CCOc1ccc(CNC(=O)c2ccc(NC(=O)N3CCCCc4ccccc43)cc2)cc1	x	x	0.7%	1.3	x	-4	1.9%

Shown with bars between the fields: entries from further up.
smiles | TRPV1 potentiator | Menin MLL FP FL | ClpP mod | TRPML1 agonist | Sfp inh | TRPML1 inh | PINK1 modulator
Nc1ccccc1SC(CC(=O)c1ccccc1)c1cccc([N+](=O)[O-])c1 (centres undefined) | x | x | -0.2% | 1.8 | x | 9 | -2.3%
Cc1ccc(S(=O)(=O)N2CCC(=O)N(C(COCc3cccc(C)c3)C(C)C)CC2)cc1 (centres undefined) | -9 | 2.6 | 1.7% | -0.1 | 0% | -1 | 1.1%
CC1CCc2sc(C(=O)NCC(C)(C)N3CCOCC3)cc2C1 (centres undefined) | -20 | x | 0.2% | 0.4 | x | -6 | 0.9%
CC1(NC(=O)c2ccccc2)CCN(CCCc2ccccc2)C1=O (centres undefined) | 0 | x | 1.5% | -0.7 | x | 16 | 0.1%
O=C(Cc1ccc(S(=O)(=O)N2CCOCC2)s1)NC1CCCCC1 | -3 | x | -2.5% | 1.8 | x | -18 | 1.0%

Next part.
SMILES	TRPV1 potentiator	Menin MLL FP FL	ClpP mod	TRPML1 agonist	Sfp inh	TRPML1 inh	PINK1 modulator
Cc1cc(N2C(=O)C(O)=C(C(=O)c3ccco3)C2c2ccc(Cl)cc2)no1 (centres undefined)	0	x	-1.6%	1.7	11%	-15	-1.7%
CC(=O)c1cccc(NC(=O)CSCc2ccccc2)c1	-16	3.7	-2.3%	0.1	0%	-2	-0.8%
COc1ccccc1OCC(=O)NNC(=O)c1ccc2c(=O)n3c(nc2c1)CCC3	-6	x	-2.9%	0.8	20%	-10	-1.3%
COC(C[C@H](O)[C@@H](C)[C@@H](O)COCc1ccccc1)OC	u	2.6	0.0%	-0.1	14%	-21	2.2%
O=C(Cn1c(=O)oc2cc(S(=O)(=O)N3CCc4ccccc43)ccc21)NC1CCCC1	x	3.3	-0.9%	-0.1	6%	-11	2.1%
CC(C)(C)c1ccc(OCC(=O)N/N=C/c2ccsc2)cc1	10	2.1	0.9%	1.0	3%	8	13%
CCOC(=O)C1CCN(S(=O)(=O)c2c(C)n[nH]c2C)CC1	8	2.0	0.2%	2.6	12%	-10	-1.9%
CC(C)c1ccc(N(CC(=O)NC(C)(C)C)C(=O)CCC(=O)Nc2nccs2)cc1	30	-0.8	2.1%	-0.2	31%[activator]	-4	-0.4%
COc1ccc(N2CCN(c3ccc(N)cc3C#N)CC2)cc1	0	1.7	-13%	0.0	-1%	-14	0.6%
COc1cc(C(=O)NCCSc2c(C)[nH]c3ccccc23)cc(OC)c1OC	x	x	-0.6%	0.2	x	-5	1.1%
O=C(NN=C1CCCC1)c1cccc(Br)c1	-11	0.9	-0.2%	1.8	15%	-4	0.5%
COC(=O)CN1C(=O)Nc2ccc(Br)cc2C1c1ccccc1Cl (centres undefined)	-3	6.4	1.7%	4.8	-23%	10	2.9%
CC(C)CC(OC(=O)c1ccco1)C(=O)NC1CCCC1 (centres undefined)	4	x	x	-0.4	-3%	9	2.6%
CCC(O)(c1ccc(OC)cc1)C(CN1CCOCC1)c1ccccc1 (centres undefined)	u	-6.7	-1.3%	-0.4	8%	4	7.2%
COc1ccc(OC)c(C=NNC(=O)NN=Cc2cc(OC)ccc2OC)c1	x	x	3.7%	-0.6	x	2	6.9%
Cc1ccc(SCCNC(=O)c2ccc([N+](=O)[O-])c(C)c2)cc1	-5	3.6	x	3.6	-9%	30	0.1%
OCCn1c(SC2CCCCC2)nc2ccccc21	2	1.7	-0.9%	-0.6	18%	2	-0.4%
CN(C)/C=C(/C(=O)c1ccc(Cl)cc1)S(=O)(=O)c1ccccc1	16	-1.9	-1.7%	0.8	7%	8	1.4%
CC12CCC(C(=O)Nc3cccnc3)(CC1=O)C2(C)C (centres undefined)	16	2.4	-0.3%	-1.0	16%	-4	0.9%
O=C1NCCN1Cc1ccccc1F	20	2.4	0.6%	0.0	4%	-3	3.7%[38.3 µM]

The closing 2 entries of the part above lead into the next.
SMILES	TRPV1 potentiator	Menin MLL FP FL	ClpP mod	TRPML1 agonist	Sfp inh	TRPML1 inh	PINK1 modulator
CC12CCC(C(=O)Nc3cccnc3)(CC1=O)C2(C)C (centres undefined)	16	2.4	-0.3%	-1.0	16%	-4	0.9%
O=C1NCCN1Cc1ccccc1F	20	2.4	0.6%	0.0	4%	-3	3.7%[38.3 µM]
COc1ccc(NC(=O)CCCc2c[nH]c3ccccc23)cc1OC	-13	4.2	x	0.1	11%	-6	1.6%
CC(C)(C)c1ccc(CC(=O)N2CCC2(C)C(=O)NS(=O)(=O)c2ccccc2)cc1 (centres undefined)	x	x	-1.3%	0.1	x	x	0.0%
CC[n+]1c(-c2ccc(C)cc2)csc1Nc1c(C)n(C)n(-c2ccccc2)c1=O	29	-1.0	0.3%	2.0	5%	-12	-1.5%
Cc1ccccc1NC(=O)Nc1ccccc1C(=O)NCc1ccccc1	22	0.6	29%	1.2	-3%	-2	1.1%
Nc1cccc2nc3ccccc3cc12	-6	6.0	4.8%	-0.4	1%	-5	-1.2%
Cc1ccc(C(=O)n2nc(-n3cccc3)c3c(C)cc(C)nc32)cc1	-5	1.1	0.8%	0.8	-2%	19	0.2%
O=C(CC1Oc2ccccc2NC1=O)NCCCN1CCCC1=O (centres undefined)	1	1.0	2.5%	-0.4	-7%	-2	0.0%
OCCCCNCc1ccc(OCc2ccc(Cl)cc2Cl)cc1	6	2.2	0.2%	0.2	u	-7	-6.6%[38.3 µM]
COc1cc(CNc2ncnc3c2ncn3[C@H]2CN(Cc3ccncc3)C[C@@H](CO)O2)cc(OC)c1OC	x	x	-1.6%	-0.5	x	x	0.0%
CC(=O)c1c(C)[nH]c(C(=O)NCCc2ccc(Cl)cc2)c1C	-10	-1.6	-1.3%	-0.5	2%	-4	3.2%
COc1cc(C(=O)NNC(=O)COc2ccc(Br)cc2)ccc1OCC(=O)N1CCOCC1	x	x	-3.1%	0.0	x	3	2.2%
CCCN(CC(=O)Nc1ccccc1C)C(=O)c1ccc2c(c1)S(=O)(=O)N=C1CCCCCN12	11	x	-1.8%	0.0	x	-9	-0.2%
Cc1nn2c(-c3ccncc3)ccnc2c1Cl	6	2.3	1.5%	0.0	21%	-12	-0.9%
CCCn1nnnc1NC(=O)c1ccc(C)cc1Cl	-1	4.8	-4.3%	1.1	-2%	-2	-2.6%
Cc1ccccc1NC1=C(Cl)C(=O)OC1OC(C)C (centres undefined)	-16	-0.3	0.7%	2.5	8%	-5	3.8%
Nc1ccc(N2CCOCC2)c(S(=O)(=O)Nc2ccccc2Cl)c1	x	x	-0.9%	-0.6	x	-1	1.8%
CCCCn1c(N)c(N(CC(C)C)C(=O)c2ccncc2)c(=O)[nH]c1=O	8	x	-6.4%	0.5	x	16	1.4%
COc1ccc([C@H]2C[C@H](n3cc(C4CC4)nn3)[C@@H](O)CN2C(=O)C2CCCCC2)cc1	x	x	0.5%	0.6	x	-14	3.4%
Cc1ccc(-c2[nH]c3ccccc3c2C(C[N+](=O)[O-])c2ccco2)cc1 (centres undefined)	-23	9.4	1.1%	3.0	20%	1	u
Cc1ccc(NC(=O)Cn2cc(S(=O)(=O)N3CCCC3)c(S(=O)(=O)N3CCCC3)c2)cc1C	x	x	-0.9%	-0.5	x	-11	0.3%
CCOc1cc(CNC(=O)c2ccc3nc(CCc4ccccc4)oc3c2)ccc1OC	x	x	-3.6%	1.7	x	4	0.3%
O=C(CSCc1ccccc1)N/N=C/c1cc2c(cc1Br)OCO2	8	1.1	u	2.4	26%	12	2.5%

Bioassay records as filed in PubChem BioAssay.
